eIF4H inh – human eIF4H binding inhibitors, primary screen, translation initiation inhibitor project, biochemical, uHTS, fluorescence polarization | Eukaryotic translation initiation factor 4H (Homo sapiens), Q15056 | eIF4H fluorescence polarization binding assay | inhibition, % at 35 µM | actives 0.94% (n = 290,000);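 active = 50% or more with normal probe brightness, or confirmed in later tests; inconclusive = above 50% with abnormal brightness, or retests that disagree; inactive = below 50% or failed in later tests; about a fifth of its hits are not listed in these tables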;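 note: calls also rest on retests at 20 µM and on dose response follow-up; 0% = protein and probe with vehicle and 100% = probe without protein; strong numbers were not always called active; many hits fall short of the cut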
CSC inhib – cancer stem cell viability inhibitors, primary screen, luminescence; inhibition, % at 7.5 µM; cancer stem cell-like cells viability; actives 1.1% (n = 300,000); AID 2717, 2010;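 active = mean at 75% or more and at least half the replicates too; inconclusive = mean and replicates disagree; tested in HMLE shEcad cells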;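 note: 0% = median of negative and 100% = median of positive control wells; the first replicate is given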
Rce1 inhib – yeast Rce1p protease inhibitors, primary screen, biochemical, fluorescence, cell-free homogeneous; yeast membranes, quenched prenylated peptide cleavage fluorescence; calls only; actives 0.27% (n = 290,000);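 active = fall in fluorescence gain of 50% or more versus controls, with final raw signal at or below 3038400; inconclusive = same 50% fall but final raw signal above 3038400; inactive = fall in fluorescence gain under 50%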;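 note: plate controls were neutral control wells for no effect and wells lacking membranes for full effect; tested at 10 µM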
PABP polyA inh – PABP poly(A) RNA binding inhibitors, primary screen, biochemical, fluorescence polarization, uHTS. Polyadenylate-binding protein 1 (Homo sapiens), P11940. inhibition, % at 35 µM. actives 1% (n = 290,000);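 active = 50% or more with normal probe brightness, or confirmed in later tests; inconclusive = above 50% with abnormal brightness, or retests that disagree; inactive = below 50% or failed in later tests; about a fifth of its hits are not listed in these tables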;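 note: calls also rest on retests at 20 µM and on dose response follow-up; controls were probe without protein and protein plus probe with vehicle; some compounds called inactive have numbers as strong as hits; many hits fall short of the cut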
Target sequence (P11940 whole entry, looked up): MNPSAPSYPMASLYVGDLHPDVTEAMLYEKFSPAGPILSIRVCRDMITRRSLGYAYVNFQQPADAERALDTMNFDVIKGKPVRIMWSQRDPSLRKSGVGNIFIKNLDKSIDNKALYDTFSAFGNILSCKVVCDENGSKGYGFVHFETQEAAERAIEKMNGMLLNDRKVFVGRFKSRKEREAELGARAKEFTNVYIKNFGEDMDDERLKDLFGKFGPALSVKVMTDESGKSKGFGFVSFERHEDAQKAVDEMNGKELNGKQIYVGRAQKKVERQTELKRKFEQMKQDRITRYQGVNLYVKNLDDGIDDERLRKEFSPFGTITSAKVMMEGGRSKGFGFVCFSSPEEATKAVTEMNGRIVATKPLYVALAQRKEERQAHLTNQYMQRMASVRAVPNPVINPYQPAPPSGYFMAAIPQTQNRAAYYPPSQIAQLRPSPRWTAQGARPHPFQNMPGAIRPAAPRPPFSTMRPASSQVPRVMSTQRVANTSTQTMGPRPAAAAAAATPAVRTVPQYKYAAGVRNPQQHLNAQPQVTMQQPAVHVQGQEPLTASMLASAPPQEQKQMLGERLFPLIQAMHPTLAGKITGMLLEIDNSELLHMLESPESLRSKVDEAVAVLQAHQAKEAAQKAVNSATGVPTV
UUG fidelity – modulators of yeast start codon fidelity, primary screen, whole organism, S. cerevisiae, single point, plate reader; S. cerevisiae UUG-firefly luciferase reporter, luminescence/redox ratio; activity score, % at 18.7 µM; actives 0.13% (n = 350,000);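 active = replicate mean at a twofold rise or more, about +100% in these data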;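 note: firefly luciferase made from a UUG start codon reports start codon fidelity; reporter light over untreated wells divided by growth signal over untreated wells; some hits fall short of that in this replicate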
MT1-MMP act inh – blockers of MT1-MMP proenzyme processing, primary screen, HT1080 RFP-PRO-GFP cells, GFP/RFP fluorescence; Matrix metalloproteinase-14 (Homo sapiens), P50281; GFP/RFP ratio fluorescence, overnight; percent of plate control window, DMSO zero; GFP/RFP ratio change, % at 20 µM; actives 0.061% (n = 360,000);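 active = GFP/RFP ratio change of at least 30% with cell ATP level not reduced by more than half and red fluorescence within 50% of control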; note: strong numbers were not always called active
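Compound: 20 µM single dose, 1% DMSO / System: HT1080 RFP-PRO-GFP cells / Controls: DMSO and RFP-L50D-GFP cell wells / Read-out basis: GFP/RFP fluorescence ratio / Schedule: overnight compound exposure at 37 °C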
Env fusion inh – inhibitors of HIV-1 Env-driven cell-cell fusion, primary screen, HeLa-JRFL effector, CEM21 target cells, luciferase; inhibition, % at 12.3 µM; actives 1.1% (n = 360,000);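 active = mean replicate inhibition score of at least 50 and every replicate individually at or above 50; inconclusive = only one of the two criteria met; inactive = mean below 50 and not all replicates reaching 50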;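 note: 0% = plate neutral controls and 100% = maraviroc near 300 nM; one replicate is shown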
eIF4H inh retest – recorded beside eIF4H inh, whose call it bears; inhibition, %; compound at 20 µM; confirmation average;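 mean of two retest wells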
PABP polyA inh retest – further read-out of PABP polyA inh, marked with its call; inhibition, %; compound at 20 µM; confirmation repeats;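 mean of two retest wells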
MT1-MMP act inh RFP – second read-out of MT1-MMP act inh, no call of its own (marks repeat the call); RFP signal change, %; measured here: RFP expression control read;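 0 = vehicle wells; hits needed this value within 50% of zero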
Numbers without * were called inactive; i = inactive; u = inconclusive; x = not tested or not shown; & = joins results of further samples.

SMILES	eIF4H inh	CSC inhib	Rce1 inhib	PABP polyA inh	UUG fidelity	MT1-MMP act inh	MT1-MMP act inh RFP	Env fusion inh	others
Cc1cc([N+](=O)[O-])ccc1NC(=O)CSc1nncn1-c1ccccn1	-5	-12	i	4	-19	1	-1	1
COc1ccc(C2/C(=C(/O)c3ccccc3)C(=O)C(=O)N2C)cc1OC (centres undefined)	-7	-2	i	6	-12	2	3	-7
O=C(Nc1ccc(F)c(F)c1)c1ccccc1	x	-15	x	x	-13	6	-7	-26
O=C(O)Cc1ccc(NS(=O)(=O)c2ccccc2Br)cc1	-1	-12	i	8	x	2	-1	10
CCCCn1c(NCCN(C)C)nc2c1c(=O)[nH]c(=O)n2C	13	-10	i	6	-13	-5	-1	-170
Nc1nc(N)nc(-c2ccc(Oc3ccccc3)cc2)n1	-1	-14	i	-3	-19	2	-2	x
CCOc1ccc(-n2c(O)c(/C=N/Nc3nnc(C)c(=O)[nH]3)c3ccccc3c2=O)cc1	28	0	i	-4	x	4	7	26
O=C(COC(=O)c1ccccn1)Nc1ncc(C(F)(F)F)cc1Cl	-1	2	i	5	-12	1	5	x
O=C(O)CSc1nnc(COc2ccccc2)n1-c1ccccc1	-14	-11	i	4	-9	-3	-2	-30
CC(C)OC(=O)C1C(=O)CC(C)(O)C(C(=O)OC(C)C)C1c1cccc(O)c1 (centres undefined)	-1	-5	i	-6	-5&1	-4	4	-41
CCCCCn1c(=O)c2ccccc2n2c(CCl)nnc12	-5	-6	x	84	x	-6	-1	8	eIF4H inh retest=-6;PABP polyA inh retest=0
CN(C)S(=O)(=O)c1ccc(NC(=O)CSc2ncnc3ccccc23)cc1	3	0	i	-8	-9	-1	-5	25
NC(=O)c1cc2cc(Cl)ccc2o/c1=N/NC(=O)c1cccs1	-4	9	i	-3	-17	7	0	-22
CC(C)N1CCC1(C)C(=O)Nc1ccc(-n2cccc2)cc1 (centres undefined)	x	x	x	x	-7	-3	0	-2
C[C@]12C=CC(=O)C=C1CC[C@@H]1C2C(O)C[C@@]2(C)C1CC[C@]2(O)C(=O)COC(=O)CCC(=O)NC(CC(=O)O)C(=O)O (some centres undefined)	-8	-3	i	3	-4	-1	2	-97
CCOc1ccc(NC(=O)c2ccc(N3CC4CC(C3)c3cccc(=O)n3C4)c(NC(=O)CCN3CCOCC3)c2)cc1 (centres undefined)	-9	-8	i	-3	0	0	1	-13
O=C(Nc1cccc2ccccc12)C12CC3CC(C1)CC(n1cnc([N+](=O)[O-])n1)(C3)C2	5	15	i	0	-9	-3	-2	x
CCc1nc(SCC(=O)N2CCCCCC2)c2c(=O)n(C)c(=O)n(C)c2n1	-1	-3	i	-3	-15	14	-1	10
COc1ccc(-c2csc3nc[nH]c(=O)c23)cc1	-1	-12	i	16	x	7	3	7
COc1ccc(C(C#N)Nc2ccccc2OC)cc1 (centres undefined)	-8	-3	i	-8	x	-3	4	7
Cc1cc(SCC(=O)NN)c2cc(Br)ccc2n1	-1	22	i	-6	-40	0	5	-4
COc1ccc(C(Nc2ccccn2)c2c(NC(=O)c3ccco3)sc(C)c2C)cc1 (centres undefined)	13	19	x	7	x	-9	-9	-34
CC(C)CCNC(=O)CCn1c(=S)oc2ccccc21	4	-15	i	12	-10	2	3	-20
Cc1ccc(C(C(=O)NCC2CCCO2)N(C(=O)c2snc(C(N)=O)c2N)c2ccc3c(c2)OCCO3)cc1 (centres undefined)	-8	11	x	7	-11	3	-2	0
Cc1ncoc1C(=O)N1CCc2c([nH]c3ccccc23)C1c1ccccc1F (centres undefined)	1	-25	i	-2	-9	-2	3	-3
CC(=O)NCc1ccc(S(=O)(=O)N2CCN(c3ccccn3)CC2)cc1	-5	5	i	-2	-1	1	1	0
COCC(=O)N(Cc1cc2ccc(C)c(C)c2n2nnnc12)C1CCCC1	4	8	i	1	x	2	1	-13
Cc1ccc(-c2nnn(CC(=O)N(c3ccc(F)cc3)C(C(=O)NC3CCCC3)c3ccco3)n2)o1 (centres undefined)	7	-9	i	-6	x	7	3	x
COCCC(=O)N1CCC(Oc2ccc(C(=O)NCc3ncc(C)[nH]3)cc2)CC1	-2	-7	i	0	-23	0	0	-15
COc1ccc(CCNC(=S)N2CCN(S(=O)(=O)c3ccc(F)cc3)CC2)cc1	x	-7	i	x	x	1	-1	x
COc1nc(-c2ccc3c(c2)OCO3)n(-c2ccc(NC(=O)CSc3ccccc3)cc2)n1	x	12	i	x	-23	4	-4	-8
O=C1Nc2ccccc2C1=Nc1ccc(-c2nnc3n2CCCCC3)cc1	-8	-8	i	-5	-18&0	-3&5	6&7	6
Cc1ccc(/C=C/C(=O)OCC(=O)NCc2ccccc2)o1	x	x	x	x	-17	6	1	-3
CCOCCCNC(=O)/C(C#N)=C/c1cc(Br)c(O)c(Br)c1	-2	x	i	11	-15	3	-13	x
COc1ccc(O)c(CN2CCCC(N3CCN(c4ccc(F)cc4)CC3)C2)c1 (centres undefined)	6	20	i	-5	-6	6	2	12
CC(OC(=O)c1ccncc1)C(=O)Nc1cccc([N+](=O)[O-])c1 (centres undefined)	2	-7	i	11	x	-4	-4	-9
Cc1nn(Cc2ccc(Cl)cc2Cl)c(C)c1NC(=O)c1sc2ccccc2c1Cl	4	7	i	-4	-19	-2	-1	16
CSc1ccc(/C=N/n2c(C)nc3ccccc3c2=O)cc1	-4	x	i	2	-11	0	-1	2
CCN(CC)CCn1c(C)nc2ccccc21	-6	7	i	13	-16	1	0	13
CCOC(=O)c1c(C)oc2c1c1c(c3ccccc32)OCN(Cc2cccnc2)C1	u	x	x	u	-17	-2	0	x
Cc1ccc(S(=O)(=O)N2CCCN(C(=O)c3cc4ccccc4[nH]3)CC2)cc1	3	-10	i	-11	-18	-5	-1	-11
NC(=O)c1ccc(-n2nnnc2SCC(=O)Nc2ccccc2)cc1	-3	-8	i	5	-24	0	-1	-5
Cc1ccc(NC(=O)CCNS(=O)(=O)c2ccc3[nH]c(=O)oc3c2)cc1N(C)C	6	-8	i	7	-18	5	2	-3
O=C(CCNS(=O)(=O)c1ccc(Br)cc1)NCCc1ccc(Cl)cc1	-2	-10	i	6	-3	1	-8	-1
COc1ccc(-c2csc(NC(=O)CCCc3nc4ccccc4c(=O)[nH]3)n2)cc1OC	x	-4	i	x	-12	5	0	9
CC(Oc1ccc(Cl)cc1Cl)C(=O)NCCCn1ccnc1 (centres undefined)	-14	-3	i	-5	-13	0	-4	x
COc1ccc(CNC2CCN(Cc3ccccc3)CC2)cc1	10	4	i	9	-17	9	0	3
CC(C)OP(=O)(c1ccc(N(C)C)cc1)C(O)c1ccc(Br)cc1 (centres undefined)	-7	-12	i	-2	x	0	2	20
CCCN1CC(=O)N2C(c3cccc(OC)c3OC)c3[nH]c4ccccc4c3C[C@H]2C1=O (some centres undefined)	0	-1	i	-2	12	3	-3	17
Cc1ccsc1C(=O)N1CCC1(C)C(=O)NS(=O)(=O)c1ccccc1 (centres undefined)	x	x	x	x	-11	3	5	-2
COc1ccc(OC)c(NC(=O)NCCN2CCN(c3ccccc3)CC2)c1	-10	-9	i	-10	-3	-7	-3	6
CCN1C(=O)c2cccc3c(N)ccc1c23	8	-12	i	13	20	2	8	-49
O=C(Nc1cccc(NC(=O)c2ccc(-c3ccc(Br)cc3)o2)c1)c1ccco1	12	39	i	-7	-17	5	-7	-31
CCCCn1c(N)c(N(CC(C)C)C(=O)c2cc(-c3ccncc3)nc3ccccc23)c(=O)[nH]c1=O	x	-6	i	x	9	-10	6	3
COC(=O)c1ccc(C2C(Oc3ccccc3)C(=O)N2CCc2ccc(F)cc2)cc1 (centres undefined)	2	x	i	3	-21	3	-2	x
N/C(Cc1cccc2ccccc12)=N\OC(=O)c1ccc(Br)o1	100	x	x	-3	x	x	x	-1	eIF4H inh retest=-10;PABP polyA inh retest=6
N#C/C(=C\c1cccnc1)C(=O)Nc1ccc(S(N)(=O)=O)cc1	13	-12	i	-5	-2	-1	5	-6
CCCCn1nc(C(=O)NCC2COc3ccccc3O2)c2ccccc2c1=O (centres undefined)	x	2	x	x	-39	5	-5	x
CC(=O)Nc1cccc(C(=O)NNC(=O)c2n[nH]c(=O)c3ccccc23)c1	x	x	x	x	-19	-4	-2	-6
Cc1sc2ncn(CC(=O)NCCCC(=O)N3CCN(c4ccccc4F)CC3)c(=O)c2c1C	-1	2	i	7	-16	1	-2	19
COCCn1c(=NC(=O)c2nc3ccccc3s2)sc2cc(S(C)(=O)=O)ccc21	-5	27	i	4	0	0	-3	1
c1ccc(Cc2nnc3sc(-c4ccncc4)nn23)cc1	-1	x	i	0	x	-6	1	26

Entries above that contain fluorine (eight):
SMILES	eIF4H inh	CSC inhib	Rce1 inhib	PABP polyA inh	UUG fidelity	MT1-MMP act inh	MT1-MMP act inh RFP	Env fusion inh	others
O=C(Nc1ccc(F)c(F)c1)c1ccccc1	x	-15	x	x	-13	6	-7	-26
O=C(COC(=O)c1ccccn1)Nc1ncc(C(F)(F)F)cc1Cl	-1	2	i	5	-12	1	5	x
Cc1ncoc1C(=O)N1CCc2c([nH]c3ccccc23)C1c1ccccc1F (centres undefined)	1	-25	i	-2	-9	-2	3	-3
Cc1ccc(-c2nnn(CC(=O)N(c3ccc(F)cc3)C(C(=O)NC3CCCC3)c3ccco3)n2)o1 (centres undefined)	7	-9	i	-6	x	7	3	x
COc1ccc(CCNC(=S)N2CCN(S(=O)(=O)c3ccc(F)cc3)CC2)cc1	x	-7	i	x	x	1	-1	x
COc1ccc(O)c(CN2CCCC(N3CCN(c4ccc(F)cc4)CC3)C2)c1 (centres undefined)	6	20	i	-5	-6	6	2	12
COC(=O)c1ccc(C2C(Oc3ccccc3)C(=O)N2CCc2ccc(F)cc2)cc1 (centres undefined)	2	x	i	3	-21	3	-2	x
Cc1sc2ncn(CC(=O)NCCCC(=O)N3CCN(c4ccccc4F)CC3)c(=O)c2c1C	-1	2	i	7	-16	1	-2	19

Part of the list above in order of formula weight, highest first:
SMILES	eIF4H inh	CSC inhib	Rce1 inhib	PABP polyA inh	UUG fidelity	MT1-MMP act inh	MT1-MMP act inh RFP	Env fusion inh	others
O=C(COC(=O)c1ccccn1)Nc1ncc(C(F)(F)F)cc1Cl	-1	2	i	5	-12	1	5	x
CCCCn1c(NCCN(C)C)nc2c1c(=O)[nH]c(=O)n2C	13	-10	i	6	-13	-5	-1	-170
CC(C)N1CCC1(C)C(=O)Nc1ccc(-n2cccc2)cc1 (centres undefined)	x	x	x	x	-7	-3	0	-2
